KCNQ2 enhance – potentiators of rat KCNQ2 potassium channel; B-score at 10 µM; Potassium voltage-gated channel subfamily KQT member 2 (Rattus norvegicus), O88943; 310,000 compounds, 0.54% hits; CHO-K1 KCNQ2, FluxOR thallium flux fluorescence; stronger effect = higher value;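 active means fluorescence ratio B-score at least 3 SD of library B-scores, with initial fluorescence B-score within 3 SD, cut at about 5.3 in these data; same plate scores as AID 2156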;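 further: B-score of peak minus minimum over baseline fluorescence ratio after K+ and Tl+ stimulus; positive B-score means potentiation of KCNQ2 with more thallium influx and brighter signal; only the inactives scoring about 0 or higher are listed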
Target sequence (O88943 whole entry, looked up): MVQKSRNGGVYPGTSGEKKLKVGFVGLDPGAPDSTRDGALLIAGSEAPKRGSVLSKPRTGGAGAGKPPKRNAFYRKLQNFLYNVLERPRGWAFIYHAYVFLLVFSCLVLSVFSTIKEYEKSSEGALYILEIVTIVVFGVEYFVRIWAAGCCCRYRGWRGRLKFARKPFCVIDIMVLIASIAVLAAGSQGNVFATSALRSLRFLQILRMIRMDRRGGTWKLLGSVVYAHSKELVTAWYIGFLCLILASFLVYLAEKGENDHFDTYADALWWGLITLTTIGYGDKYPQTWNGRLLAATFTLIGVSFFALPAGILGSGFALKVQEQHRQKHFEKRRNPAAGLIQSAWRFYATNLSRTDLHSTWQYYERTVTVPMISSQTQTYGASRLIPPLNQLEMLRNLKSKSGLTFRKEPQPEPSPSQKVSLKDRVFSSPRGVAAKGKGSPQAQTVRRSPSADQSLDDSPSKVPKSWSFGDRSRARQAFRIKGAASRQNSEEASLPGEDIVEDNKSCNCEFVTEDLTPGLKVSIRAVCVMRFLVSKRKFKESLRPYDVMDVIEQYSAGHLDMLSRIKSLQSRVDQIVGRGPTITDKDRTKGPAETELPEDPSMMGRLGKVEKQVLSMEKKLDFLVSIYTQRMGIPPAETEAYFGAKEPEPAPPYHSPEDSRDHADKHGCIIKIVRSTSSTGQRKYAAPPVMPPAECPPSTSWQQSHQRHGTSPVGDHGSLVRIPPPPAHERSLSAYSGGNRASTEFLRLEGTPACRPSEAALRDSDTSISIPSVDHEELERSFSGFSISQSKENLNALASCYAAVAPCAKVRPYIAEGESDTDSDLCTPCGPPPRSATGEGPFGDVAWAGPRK
KCNQ2 enhance baseline – recorded beside KCNQ2 enhance, whose call it bears; B-score; compound at 10 µM; measured here: initial fluorescence intensity artifact check;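 brightness before thallium and not channel activity; 0 = typical well and far values either way flag optical interference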
* hit, by the source's call. Some of the compounds tested (hit frequency here may not be typical).

KCNQ2 enhance	KCNQ2 enhance baseline	SMILES
0.02	-2.1	O=C(CS(=O)(=O)Cc1ccccc1)Nc1ccc(Br)cc1F
0.01	3	C/C=C/C(=O)Nc1cccc(C2=NOC3(C2)C[C@@H](C(N)=O)N(C(=O)c2cc([N+](=O)[O-])cc([N+](=O)[O-])c2)C3)c1 (some centres not stated)
2.7	0.19	O=C(COc1ccc(Cl)cc1Cl)NC(=S)Nc1ccccc1C(=O)O
0.03	1.2	C=CCn1c(SCc2nc3ccccc3nc2C)nnc1-c1ccoc1C
0.81	0.02	O=C(CSc1nnc(-c2ccccc2)n1-c1ccccc1)c1ccc[nH]1
1.7	-0.79	Cc1cc(C(=O)O)ccc1-c1ccc(/C=C2\NC(=O)N(Cc3ccc(F)cc3)C2=O)o1
0.93	-0.28	Nc1ccccc1C#Cc1ccccc1
0.03	-0.64	Cc1ccc(S(=O)(=O)N/N=c2\oc3ccccc3cc2C(=O)Nc2cccc(C)c2)cc1
0.03	-0.18	CCOP(=O)(c1ccccc1)C(O)c1ccc(F)cc1 (configuration not stated)
0.14	-1.1	O=C1C2C3C=CC(C3)C2C(=O)N1Nc1c(Cl)cc(Cl)cc1Cl (configuration not stated)
0.74	-0.07	Fc1ccc(-c2n[nH]c(=S)n2-c2ccc3c(c2)OCCO3)cc1
1.7	-1.9	CC1CCN(C(=O)Cn2c3ccccc3c3nc4n(c(=O)c32)CCCS4)CC1
0.2	1.3	CCOc1ccc(S(=O)(=O)N(C)c2ccc(OCC(=O)N3CCOCC3)cc2)cc1
1.2	-0.26	O=C(CSc1nnc(-c2n[nH]c3ccccc23)n1-c1ccccc1)Nc1cccc(Cl)c1
1.5	-0.49	O=C(NCc1ccco1)c1ccc2c(c1)S(=O)(=O)c1ccccc1C2=O

4 of the compounds above, as labelled records:
SMILES: O=C(CS(=O)(=O)Cc1ccccc1)Nc1ccc(Br)cc1F
  KCNQ2 enhance: 0.02; KCNQ2 enhance baseline: -2.1

SMILES: CCOP(=O)(c1ccccc1)C(O)c1ccc(F)cc1 (configuration not stated)
  KCNQ2 enhance: 0.03; KCNQ2 enhance baseline: -0.18

SMILES: CC1CCN(C(=O)Cn2c3ccccc3c3nc4n(c(=O)c32)CCCS4)CC1
  KCNQ2 enhance: 1.7; KCNQ2 enhance baseline: -1.9

SMILES: Cc1cc(C(=O)O)ccc1-c1ccc(/C=C2\NC(=O)N(Cc3ccc(F)cc3)C2=O)o1
  KCNQ2 enhance: 1.7; KCNQ2 enhance baseline: -0.79

(next part)
KCNQ2 enhance	KCNQ2 enhance baseline	SMILES
1.1	1.6	CS(=O)(=O)Nc1ccccc1C(=O)N1CCCC1
0.66	-0.09	O=C(CCCn1c(=S)[nH]c2cc3c(cc2c1=O)OCO3)NC1CC1
1.2	0.33	COc1ccc(N2CCC(CNC(=S)Nc3ccc(C)cc3C)C2)cc1 (configuration not stated)
0.36	-1.3	Cc1ccccc1NC(=O)c1cccc(S(C)(=O)=O)c1
0.77	0.64	COc1cc(C)ccc1OCc1cc(C(=O)N(Cc2nccn2C)C(C)C)no1
0.2	0.81	O=C(NC1CCCCCCC1)c1c(Cl)cccc1Cl
0.09	-1.1	Cc1cccc(NC(=O)c2cccc(S(=O)(=O)N3CCCCC3)c2)c1
0.16	1.6	CCOc1ccc(S(=O)(=O)N2CCCC(C(=O)N3CCN(CC)CC3)C2)cc1Cl (configuration not stated)
0.1	1.8	COc1ccc(Nc2nc(-c3ccncc3)nc3ccccc23)cc1
0.03	0.02	Cc1ccc(-c2nn3c(C)nnc3s2)cc1N
0.09	-0.43	OC(Cc1nc2ccccc2[nH]1)c1ccccc1Cl (configuration not stated)
1.4	0.52	CSc1nc(C)c2c(n1)N(c1ccc(F)cc1)CC2
0.3	0.43	O=C(O)CCCCCN1C(=O)CCC1=O
0.17	1.3	Cc1ccc(NC(=O)c2ccc(Cn3cc(Br)cn3)o2)cc1
0.88	0.12	COc1ccc(OCCC(=O)OCC(=O)NCc2ccc(F)cc2)cc1

Ordered by count of non-hydrogen atoms (descending): some entries from above
KCNQ2 enhance	KCNQ2 enhance baseline	SMILES
0.77	0.64	COc1cc(C)ccc1OCc1cc(C(=O)N(Cc2nccn2C)C(C)C)no1
0.1	1.8	COc1ccc(Nc2nc(-c3ccncc3)nc3ccccc23)cc1
0.66	-0.09	O=C(CCCn1c(=S)[nH]c2cc3c(cc2c1=O)OCO3)NC1CC1
0.17	1.3	Cc1ccc(NC(=O)c2ccc(Cn3cc(Br)cn3)o2)cc1
0.2	0.81	O=C(NC1CCCCCCC1)c1c(Cl)cccc1Cl
1.1	1.6	CS(=O)(=O)Nc1ccccc1C(=O)N1CCCC1
0.3	0.43	O=C(O)CCCCCN1C(=O)CCC1=O

Next part
KCNQ2 enhance	KCNQ2 enhance baseline	SMILES
1.1	-0.42	O=C(NCCN1CCOCC1)c1c(F)c(F)c(F)c(F)c1F
0.74	-1.2	CCOc1ccc(-n2c(C)c(C(C)=O)c(C(C)=O)c2C)cc1
0.15	-0.28	O=C(COc1ccccc1[N+](=O)[O-])N/N=C/c1cccc(OC(=O)c2ccc3c(c2)OCO3)c1
0.1	-0.01	CC(=O)Nc1nc(C)c(-c2csc(Nc3ccc(S(N)(=O)=O)cc3)n2)s1
1.3	-0.2	O=C(Nc1sc2c(c1C(=O)NCCO)CCCC2)c1ccco1
0.13	-1.5	Cc1cc(NC(=O)c2ccc(NC(=O)C3CC3)cc2)no1
0.35	-0.61	CCN(CC(=O)Nc1cc(S(=O)(=O)N2CCOCC2)ccc1C)Cc1ccccc1
0.52	0.85	Cc1ccn2c(Nc3ccccc3C)c(-c3cccnc3)nc2c1
1.1	0.5	CCCc1nn2c(=O)cc(O)nc2s1
0.57	-0.45	O=C1C2C3C=CC(CC3)C2C(=O)N1c1ccc(F)cc1 (configuration not stated)
1.6	-0.94	CCn1nnc2cc(C(=O)Nc3cc(S(C)(=O)=O)ccc3Cl)ccc21
2	0.07	COc1cc(CNc2ncc(-c3ccc(Br)cc3)n2C)cc(OC)c1OC
0.04	-1.9	S=C(Nc1ccc(CN2CCCCC2)cc1)Nc1cccc(Cl)c1Cl
1.8	-0.84	COc1ccc(NC2=C(C)C(=O)CC2)cc1
0.46	0.32	Cc1nc(NC(=O)C2CC3CCCC(C2)C3=O)sc1C (configuration not stated)
0.58	-0.07	CCOC(=O)C1=C(C)N(CCCC(=O)O)C(=O)NC1c1ccccc1OS(=O)(=O)c1ccccc1[N+](=O)[O-] (configuration not stated)
0.61	-0.96	Nn1c(SCc2ccc(F)cc2)nnc1-c1cccnc1
0.22	2.6	Cc1cc(O)c(C(=O)Nc2cccc(Cl)c2)c(=O)n1C
1.3	-1	Cc1ccc(S(=O)(=O)N(CC(=O)N(C)C)c2cccc([N+](=O)[O-])c2)cc1
0.93	-1.3	CCCN1CN(CCc2ccccc2)CNC1=S
0.79	2.3	CCOc1ccc(Br)cc1S(=O)(=O)N1CCCC1
2.5	-0.39	CC1CCN(C(=O)C2CCN(S(=O)(=O)c3cccc4cccnc34)CC2)CC1
1.6	-0.27	COC(=O)c1ccc(/C=C2\CCn3c2nc2cc(C(=O)O)ccc2c3=O)cc1
3.4	-0.05	Cc1nc2sc(C(c3ccccc3)N3CCN(C(=O)c4ccco4)CC3)c(O)n2n1 (configuration not stated)
0.85	0.9	O=C(COC(=O)CNC(=O)c1cccc([N+](=O)[O-])c1)Nc1cccc(S(=O)(=O)N2CCCCC2)c1
0.89	-1.3	COc1ccc(/C=C2\SC(=O)N(CCC(=O)NC3CCS(=O)(=O)C3)C2=O)cc1 (configuration not stated)
0.12	-0.41	O=C(O)c1ccc(-c2ccc(Cl)cc2Cl)o1
1.9	0.88	O=C1c2ccccc2C2(c3ccc(F)cc3)NCCN12 (configuration not stated)
1.1	0.65	CC(=O)c1ccc(OCCCC(=O)N2CCN(S(=O)(=O)c3ccc(C)cc3C)CC2)cc1
1.3	0.89	CC(C)(C)c1ccc(OCC(=O)NNC(=S)NC(=O)c2ccccc2[N+](=O)[O-])c(Br)c1
0.33	-0.05	CCOc1cc(C2/C(=C(/O)c3ccc(OC(C)C)cc3)C(=O)C(=O)N2CCCOC)ccc1O (configuration not stated)
1.9	-0.16	COCCNC(=O)C1Nc2ccc(C(F)(F)F)cc2C2C=CCC12 (configuration not stated)
0.55	0.47	Cc1occc1C(=O)NC(C)CCc1ccccc1 (configuration not stated)
0.4	-1.1	N#Cc1c(N2C(=O)c3ccc(C(=O)O)cc3C2=O)sc2c1CCCC2
0.79	-1.2	Cn1cnnc1SCC(=O)Nc1cccc(S(=O)(=O)N2CCOCC2)c1
0.06	-0.03	CS(=O)(=O)N1CCC(C(=O)Nc2cccc(F)c2)CC1
0.26	-2.5	CC(=O)Nc1ccc(-c2csc(NC(=O)Cc3cccc(F)c3)n2)cc1
0.37	-1.3	COc1cc(C(=O)OCC(=O)Nc2nnc(-c3ccccc3)o2)cc(OC)c1OC
0.67	1.3	O=C(OCC#CCSc1nnc(-c2ccncc2)o1)c1cccs1
0.23	0.01	CCOc1ccccc1NC(=O)CSc1nnc2ccc(-c3ccccn3)nn12
0.93	-0.11	COc1cc(OC)cc(C(=O)OCC(=O)NCCCc2ccccc2)c1
0.07	-0.02	O=c1[nH]cnc(O)c1C(c1ccc(Br)cc1)c1c(O)nc[nH]c1=O
0.01	-0.65	COc1cc(S(=O)(=O)N2CCCC2)c(C)cc1C
0.82	0	COc1ccccc1N1CCN(CC(=O)c2ccc3ccn(C(C)=O)c3c2)CC1
0.03	1.8	Cc1ccc(-n2sc3ccccc3c2=O)cc1S(=O)(=O)N1CCCCC1
1.4	2	O=C(O)CCC(NC(=S)Nc1ccccc1)C(=O)O (configuration not stated)
0.08	-0.3	CC(C)c1ccccc1NC(=O)COC(=O)Cc1cccc(C(F)(F)F)c1
2	0.35	COC(=O)c1nn(-c2ccc3c(c2)CCN3C(C)=O)cc1O
0.12	0.86	COc1ccc(OC)c(C(=O)COC(=O)c2ccc(C)o2)c1
0.03	-0.12	CCOC(=O)c1c(-c2ccc(C)cc2)csc1NC(=O)c1cccc(N2C(=O)CCC2=O)c1
0.43	0.45	COc1cc2c(cc1OC)C(C)N(C(=O)c1ccc(C)o1)CC2 (configuration not stated)
2.8	-0.82	CCCc1ccc(O)c(N=Cc2cc(Br)cc(OCC)c2O)c1
2	-1.2	OC1(c2cccc(C(F)(F)F)c2)CCN(Cc2nc(-c3cnccn3)no2)CC1
1.3	0.08	CCc1cc2c(cc3c(=O)n(CC(=O)N4CCN(c5ccccn5)CC4)nc(CC)n32)s1
0.07	0.84	Nc1ccc(S(=O)(=O)Nc2nccc(/C=C/c3cccc(Br)c3)n2)cc1
1.5	-1.9	CCNc1nc(N)c(C(=C(C#N)C#N)c2ccccc2)s1
0.35	-2.5	CCc1ccc(NC(=O)c2cc3c(C)nc4ccccc4c3o2)cc1
0.41	-0.4	O=C(O)C1CCN1C1CCCCC1 (configuration not stated)
1.4	-2.1	Cc1noc(C)c1C(=O)N1CCC(Cc2ccccc2)CC1
0.68	-0.17	COC(=O)c1ccc(S(=O)(=O)NCCc2ccccc2OC)n1C

Other structures
KCNQ2 enhance	KCNQ2 enhance baseline	SMILES
0.27	-0.54	CC(=O)Nc1ccccc1C(=O)C(=O)O
0.35	-0.02	O=C(Nc1ccc(S(=O)(=O)N2CCCCC2)cc1)C1CC(=O)N(c2ccc(F)cc2)C1 (configuration not stated)
0.13	0.65	CCOC(=O)N1CCN(C(=O)c2c[nH]c3ccc(S(=O)(=O)N(C)c4ccc(F)cc4)cc3c2=O)CC1
0.23	-0.36	CCCS(=O)(=O)Nc1ccc(-c2cn3c(n2)SCC3)cc1
0.07	1	C[n+]1cn(/N=C/c2ccccc2)c2ccccc21
0.06	-1.4	CCS(=O)(=O)N1Cc2ccccc2CC1C(=O)Nc1cccc(OC)c1 (configuration not stated)
2.5	1.4	CCCOC1CCCN(C(=O)c2cc(COc3c(F)cccc3F)on2)C1 (configuration not stated)
0.81	1.2	C=CCc1ccc(OCCCOc2ccc(C(=O)O)cc2)c(OC)c1
0.84	1.2	Cc1nc(N)sc1N=Nc1ccc(Br)cc1
1.2	1	C/C(=N\Nc1ccccc1Cl)c1ccc(-n2ccnc2)cc1
0.07	1.7	Cc1nc2ccccc2n1C1CC(=O)N(Cc2ccccc2)C1=O (configuration not stated)
1.7	-0.18	O=c1cc(O)c2c(=O)n(-c3ccccc3)c3ccccc3c2o1
1.1	-1.1	CC(C)CN(C(=O)CN1CCN(c2ccc(F)cc2)CC1)c1c(N)n(CC(C)C)c(=O)[nH]c1=O
0.37	0.42	O=C(COC(=O)c1ccc(S(=O)(=O)N2CCOCC2)cc1)Nc1nc(-c2ccccc2)cs1
0.04	-0.04	S=C(Nc1ccc(Cl)cc1Cl)N1CCN(c2ccccn2)CC1
0.77	0.21	Cc1nonc1NC(=O)CSc1nnc(-c2ccoc2C)n1C
0.35	-0.67	O=C(CN(Cc1ccc(F)cc1)C(=O)CNS(=O)(=O)c1ccc(Cl)cc1)NCC1CCCO1 (configuration not stated)
1.1	-0.89	O=C(NCc1ccncc1)C(=O)NCC1OCCCN1S(=O)(=O)c1ccccc1 (configuration not stated)
0.74	-0.55	Cn1c(=O)c2c(nc(CN3CCN(CCO)CC3)n2CCc2ccccc2)n(C)c1=O
1.6	-0.97	CCNS(=O)(=O)c1ccc2c3c(cccc13)C(=O)N2
3.3	0	N/C(=N\OS(=O)(=O)c1cc(Cl)ccc1Cl)c1ccncc1
